VDR inh = inhibitors of human vitamin D receptor; AID 504847; P11473; VDR-SRC2-3 peptide fluorescence polarization, 2 h; Potency, µM, without a hit: max response, negative = inhibition, actives largely listed as inhibitors; hit rate 0.93% among 400,000; active means well fitted inhibition curve with a large enough effect; inconclusive means small, poorly fitted or top-dose-only effect, or another doubt; inactive means no such curve, though single readings can be large or run the other way; further: series mostly up to about 120 µM
Target sequence (P11473 whole entry, looked up): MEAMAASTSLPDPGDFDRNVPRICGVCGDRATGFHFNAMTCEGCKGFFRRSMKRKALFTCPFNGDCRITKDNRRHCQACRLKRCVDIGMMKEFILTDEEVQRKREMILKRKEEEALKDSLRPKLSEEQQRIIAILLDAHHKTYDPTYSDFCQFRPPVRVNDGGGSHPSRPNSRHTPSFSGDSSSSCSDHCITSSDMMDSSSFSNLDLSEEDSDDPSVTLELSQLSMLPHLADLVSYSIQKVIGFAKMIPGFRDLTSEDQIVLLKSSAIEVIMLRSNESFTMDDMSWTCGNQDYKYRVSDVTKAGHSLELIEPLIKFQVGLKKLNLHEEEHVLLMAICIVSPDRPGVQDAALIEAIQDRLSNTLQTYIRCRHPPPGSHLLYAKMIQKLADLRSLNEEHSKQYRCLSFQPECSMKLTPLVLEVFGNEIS
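After 23 nl compound addition and a short centrifugation, plates sat for 2 hours at ambient temperature; polarization of fluorescence then indicated loss of VDR binding to peptide SRC2-3.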
* marks the source's active call; other numbers are inactive results; u = inconclusive; & = joins results of further samples. On the % scale 0 is the no-effect control and ±100 the full control effect; potency means the concentration at half of the fitted maximal effect. An excerpt; the hit share may differ from the screen's.

VDR inh | smiles
6.9% | CCc1nn2c(=O)cc(COC(=O)c3ccccc3)nc2s1
-10.0% | CCC1(C)NC(=O)N(/N=C/c2cc(OC)c(O)c(OC)c2)C1=O (stereo not drawn)
-17.7% | COc1ccc(C)cc1NC(=O)C(Sc1nnc(Nc2ccccc2F)s1)c1ccccc1 (stereo not drawn)
-15.9% | Cc1cc(C)cc(NC(=S)NCCc2ccc(S(N)(=O)=O)cc2)c1
24.9% | O=C(NC(c1ccccc1)c1ccccc1)c1ccc(Br)o1
1.2% | Cc1onc(-c2ccccc2)c1C(=O)Nc1ccc(-c2nnc3n2CCCCC3)cc1
-19.2% | COc1ccc(Cl)cc1NC(=O)CCN1C(=O)C2C3CCC(C3)C2C1=O (stereo not drawn)
-18.8% | Cc1ccc(C2CC(c3ccc(F)cc3)Nc3nc(N)nn32)cc1 (stereo not drawn)
2.7% | CSc1n[nH]c(NCc2ccc(C)cc2)n1
13.7% | CCOc1ccc(CCNC(=O)CN2C(=O)NC3(CCCc4ccccc43)C2=O)cc1OCC (stereo not drawn)
-6.1% | CCCC(=O)NC(=S)Nc1c(C)cc(Br)cc1C
1.3% | CC1(C)C(C=C(Cl)Cl)C1C(=O)N1CCN(Cc2ccccc2)CC1 (stereo not drawn)

Quoted from the entries so far, two compounds:
VDR inh | smiles
6.9% | CCc1nn2c(=O)cc(COC(=O)c3ccccc3)nc2s1
-10.0% | CCC1(C)NC(=O)N(/N=C/c2cc(OC)c(O)c(OC)c2)C1=O (stereo not drawn)

Continued.
VDR inh | smiles
6.6% | CC(=O)Nc1cccc(NC(=O)CSc2nnc(Cc3cccn3C)n2-c2ccc(F)cc2)c1
21.0% | C/C(=N/NC(=O)c1cccc(N2CCCC2=O)c1)c1ccncc1
-14.4% | CC(C)C(=O)Nc1c(C(=O)c2ccc(F)cc2)oc2ccccc12
28.3% | CC(C)Cn1c(SC(C)C(=O)NC2CC2)nnc1-c1ccccc1F (stereo not drawn)
-19.3% | O=C(O)[C@H](Cc1ccccc1)NC(=O)N1CCN(c2ccccc2)CC1
11.0% | O=C(NC1CCN(C(=O)Nc2ccc(F)cc2)CC1)c1cccc(F)c1
3.3% | CC(=O)Nc1ccc(C(=O)CSc2nnnn2C2CCCC2)cc1
-11.3% | Cc1ccccc1NC(=O)c1ccc(C)c(S(=O)(=O)N2CCN(C)CC2)c1
-2.2% | COCCN1CCN(c2cc(-c3ccccc3)nc3cc(-c4cccc(F)c4)nn23)CC1
-13.1% | O=C(COC(=O)c1c(F)cccc1Cl)NC1CCCC1
-9.6% | COc1ccc(N(CC(=O)NCc2cccs2)S(=O)(=O)c2c(C)nn(C)c2C)cc1
-1.4% | CCOc1ccc(NC(=O)C2CCCN(c3ccc(Sc4ccc(C)cc4)nn3)C2)cc1 (stereo not drawn)

Compounds above containing bromine, in the order listed:
VDR inh | smiles
24.9% | O=C(NC(c1ccccc1)c1ccccc1)c1ccc(Br)o1
-6.1% | CCCC(=O)NC(=S)Nc1c(C)cc(Br)cc1C

New compounds follow
VDR inh | smiles
4.3% | COc1ccc2[nH]cc(CCNS(=O)(=O)Cc3ccccc3)c2c1
1.4% | COc1cccc(C(=O)Nc2nc3ccc(S(C)(=O)=O)cc3s2)c1
-1.3% | CCN1CCN(Cc2c(O)ccc3c2O/C(=C\C=C\c2ccccc2OC)C3=O)CC1
6.2% | COc1ccc(CCNC(=O)c2oc3ccc(OC)cc3c2C)cc1
13.4% | COC(=O)c1ccc(COC(=O)CNS(=O)(=O)c2ccc(C)cc2)cc1
-10.7% | COc1ccccc1N1CCN(C(c2cccs2)C(C)NC(=O)c2cccs2)CC1 (stereo not drawn)
1.6% | CC(C)C(=O)Nc1cccc(COc2ccccc2CN(Cc2ccccc2)C(=O)OC(C)(C)C)c1
u | O=C(CSc1ccc(Br)cc1)NCC(c1cccs1)N1CCOCC1 (stereo not drawn)
16.9% | O=C(O)CCC(=O)N1CCc2cc(S(=O)(=O)NCc3cccs3)ccc21
-5.2% | CCOc1ccc(C(C)=O)cc1COc1ccc(-n2cnnn2)cc1
-0.7% | COC(=O)c1ccc2c(=O)n(-c3ccccc3)c(=S)[nH]c2c1
-19.4% | O=C(CSc1nnc(NC(=O)C2CC(=O)N(c3ccc(F)cc3)C2)s1)NC1CCCC1 (stereo not drawn)
18.5% | CCC(C)n1c(=N)c(C#N)cc2c(=O)n3ccccc3nc21 (stereo not drawn)
-5.9% | CC(C)C(=O)N1CCC(c2nc(-c3ccc(S(=O)(=O)N4CCCC4)cc3)no2)CC1
-12.6% | O=C(NCCc1ccccc1)C1CCCN1S(=O)(=O)c1ccccc1 (stereo not drawn)
8.1% | CCc1ccc(CNc2ccc3c(c2)ncn3CC)cc1
-11.0% | S=C(NCCc1cccc(Cl)c1)NC1CCCCC1
-1.9% | CCOC(=O)N1CCN(c2nc3c(C)cccn3c(=O)c2C=O)CC1
-12.4% | Cc1sc2ncnc(SCC(=O)NC(=O)c3cccn3C)c2c1C
7.6% | COC(=O)c1cc2oc(C)cc2n1CC(=O)Nc1cc(Cl)ccc1OC
-17.7% | CCN(CC)c1ccc(NC(=O)COc2ccc(N(C)S(=O)(=O)c3cccs3)cc2)cc1
-11.2% | CC(=O)c1cc(-c2ccccc2)n(CC(=O)N2CCN(C3CCCC3)CC2)c1C
-1.0% | CC(C)=CCC(C)(C)CNC(=O)NC1CCCCC1
13.9% | N#Cc1ccccc1Sc1ccccc1C(=O)OCC(=O)N1CCN(C(=O)c2ccco2)CC1
-9.9% | CCC(Oc1ccccc1F)C(=O)N1CCC(c2nc3ccccc3s2)CC1 (stereo not drawn)
-13.9% | O=C1c2cc([N+](=O)[O-])ccc2-c2ncccc21
28.2µM* | CCS(=O)(=O)c1cc([N+](=O)[O-])c(Sc2ccccc2N)s1
-9.8% | c1ccc2c(-c3nn4nnnc4c4ccccc34)cccc2c1
2.6% | CCCCCn1c(=O)c(Cc2ccccc2)c(O)c2ccccc21
10.8% | COc1ccccc1/C=C/C(=O)NC(=S)N1CCN(C)CC1
u | CCOc1ccc(/C=C2/C(=N)N3OC(C)=CC3=NC2=O)cc1OC
-4.0% | O=C1OCCC1Sc1nnc(-c2ccc(Br)cc2)o1 (stereo not drawn)
6.0% | Cc1csc2nc(COC(=O)CNC(=O)c3ccccc3)cc(=O)n12
-3.3% | CC(C)Oc1cccc(C(=O)Nc2ccc(NC(=O)c3ccco3)cc2)c1
7.1% | CC(C)(C)OC(=O)N1CCC(c2c(C(=O)N3CCN(c4ccccn4)CC3)cnn2-c2ccc(F)cc2F)CC1
u | O=C(/C=C/c1ccccc1)NCCSCc1ccccc1
-21.4% | COc1ccc(NC(=S)NCC2CCCO2)c(C)c1 (stereo not drawn)
-5.4% | CCOC(=O)[C@@H]1CSCCS(=O)(=O)N1Cc1ccccc1Br
-4.6% | O=C1C(=O)N(CCN2CCOCC2)C(c2ccncc2)/C1=C(/O)c1ccc2c(c1)OCO2 (stereo not drawn)
-9.7% | Cn1c(/C=N/n2cnnc2)nc2ccccc21
u | CC1=C(CC/C(C)=N/NC(N)=S)C(C)(C)CCC1
-8.9% | COc1cc(C(=O)NCc2ccncc2)cc(Br)c1OCc1ccccc1
5.3% | Cc1ccccc1OCCOC(=O)c1c(-c2ccccc2)noc1C
-10.4% | O=C(O)c1cccc(Oc2ccc(C(=O)O)c([N+](=O)[O-])c2)c1
-4.6% | CN(CC(=O)Nc1cccc(F)c1)C(=O)c1ccc2c(c1)OCCO2
-23.1% | COc1ccc(NC(=O)c2cc(-c3ccccc3)oc2C)cc1
10.5% | O=C1NC(=O)C(Cc2ccccc2)(c2ccccc2)N1 (stereo not drawn)
-29.5% | CC(NC(=S)NC(=O)c1ccccc1Br)c1ccccc1 (stereo not drawn)
-1.4% | CC(=O)c1cccc(NC(=O)CN2CCc3cc4c(cc3C2C)OCCCO4)c1 (stereo not drawn)
1.7% | Cn1c(CC(=O)Nc2ccccc2F)nnc1SCC(=O)Nc1nccs1
6.6% | COc1ccccc1Nc1nc2nonc2[nH]c1=O
-6.4% | N/C(=N\OC(=O)COc1ccc(Cl)cc1Br)c1cccnc1
-21.9% | Cn1ccnc1C(O)c1ccccc1 (stereo not drawn)
-7.4% | CN(CC(=O)Nc1ccc(F)cc1)CC(=O)Nc1ccc(Cl)c(S(=O)(=O)N2CCOCC2)c1
-4.2% | O=c1oc2ccc(Br)cc2cc1-c1nc2ccccc2o1
-13.4% | Cc1ccc2ncc(C(=O)Nc3ccc(F)cc3F)c(=O)n2c1
-12.3% | Cc1cc(C)cc(-n2ccn3c(CC(C)(C)CC(=O)O)nnc3c2=O)c1
-10.6%&3.1% | COc1cc(C2CC(=O)Oc3c(C(CCN4CCCC(C)C4)c4ccc(N(C)C)cc4)c(OC)cc(OC)c32)cc(OC)c1OC (stereo not drawn)
-7.3% | CCCCOc1ccc(/C=C/C(=O)OCC(=O)NC(=O)NCC(C)C)cc1OCC
-8.0% | C/C(=N\N1CCN(c2ccc(Cl)cc2)CC1)c1cccs1

Ordered by value in VDR inh (falling): 5 from the list above.
Compound | VDR inh
CCc1ccc(CNc2ccc3c(c2)ncn3CC)cc1 | 8.1%
CCOc1ccc(NC(=O)C2CCCN(c3ccc(Sc4ccc(C)cc4)nn3)C2)cc1 (stereo not drawn) | -1.4%
CC(C)C(=O)N1CCC(c2nc(-c3ccc(S(=O)(=O)N4CCCC4)cc3)no2)CC1 | -5.9%
CC(=O)c1cc(-c2ccccc2)n(CC(=O)N2CCN(C3CCCC3)CC2)c1C | -11.2%
Cc1ccc(C2CC(c3ccc(F)cc3)Nc3nc(N)nn32)cc1 (stereo not drawn) | -18.8%

Additional compounds.
VDR inh | smiles
-23.8% | COCCN1C2=C(COC(C)(C)C2)C(=S)NC1c1ccccc1 (stereo not drawn)
10.4% | Cc1nc([N+](=O)[O-])cn1CC(=O)Nc1ccc2c(c1)OCO2
-8.7% | O=S(=O)(N[C@H]1C[C@@H](NS(=O)(=O)OCC(Cl)(Cl)Cl)C2CCCCC21)OCC(Cl)(Cl)Cl (stereo partly drawn)
15.3% | O=C(CNC(=O)c1ccc(Cl)cc1Cl)OCc1ccccc1
5.7% | COc1ccc(OCC(=O)Nc2ccccc2C(=O)Nc2ccc(C(=O)O)cc2)cc1
-16.8% | CCCOc1ccc(/C(O)=C2/C(=O)C(=O)N(CCN(C)C)C2c2ccc(OC)c(OC)c2)cc1 (stereo not drawn)
-3.5% | O=C(COC(=O)COc1ccc(Br)cc1)NNC(=O)c1ccccc1
-14.6% | CCC(NC(=O)c1ccccc1NC(=O)c1ccco1)C(=O)NNC(=O)c1ccncc1 (stereo not drawn)
-19.2% | Cc1ccc(S(=O)(=O)N2CCCCC2)cc1NC(=O)Nc1ccc(Cl)cc1Cl
8.7% | C[C@H](CO)N1C[C@H](C)[C@@H](CN(C)S(=O)(=O)c2cn(C)cn2)Oc2ccc(NC(=O)Nc3ccccc3)cc2C1=O
-0.1% | Cc1cc(C)cc(NC(=O)C(OC(=O)c2cc[n+]([O-])cc2)c2ccccc2)c1 (stereo not drawn)
0.0% | CC(=O)c1ccc(N2CCC(C(=O)O)CC2)cc1
2.5% | Cc1ccc2c(c1)N(C(=O)CCC(=O)NC1CCCCCC1)CC(C)O2 (stereo not drawn)
15.6% | Cc1csc(=O)n1CC(=O)Nc1ccc(Cl)c(Cl)c1
-8.8% | CC(=O)c1ccc(NC(=O)c2cc3c([nH]c2=O)CC(c2ccccc2)CC3=O)cc1 (stereo not drawn)
22.9% | Cc1ccc(Nc2c(-c3ccccn3)nc3cc(C)ccn23)cc1
-8.2% | CCN1CCN(CC(=O)Nc2cc(F)ccc2C)CC1
-16.9% | CC(=O)NCC(O)c1ccc([N+](=O)[O-])cc1 (stereo not drawn)
-15.8% | CCc1csc(CNC(=O)C2CCC(=O)N(Cc3cccc(F)c3)C2)n1 (stereo not drawn)
-8.8% | Cn1c(CC(=O)NN)c(Sc2ccccc2)c2ccccc21
-11.2% | COc1ccc(NC2CCCN(Cc3cccc4cnccc34)C2)cc1 (stereo not drawn)
8.3% | CCCCNC(=O)NS(=O)(=O)c1ccc(C(=O)OC(C)C)o1
6.2% | O=C(COc1ccc2ccccc2c1)NCCNC(=O)COc1ccc2ccccc2c1
-20.7% | Cc1c(NS(=O)(=O)c2cc([N+](=O)[O-])ccc2Cl)c(=O)n(-c2ccccc2)n1C
23.3% | CCCCOc1cccc(C(=O)Nc2cccc3ccc(C)nc23)c1
-1.4% | CCOC(=O)c1ccc(NC(=O)C2CCCN(c3ccc(Sc4ccc(C)cc4)nn3)C2)cc1 (stereo not drawn)
-5.2% | O=C(CC1C(=O)N(c2ccccc2)C(=O)N1Cc1ccc(F)cc1)Nc1cccc(F)c1 (stereo not drawn)
-7.8% | CCOC(=O)/C(C#N)=C/c1cc(C)n(-c2ccccc2)c1C
5.2% | O=C(/C=C/c1ccc(F)cc1)Nc1cccc(S(=O)(=O)Nc2cccc(C(F)(F)F)c2)c1
-7.4%&2.7% | CCOC(=O)c1[nH]cnc1C(=O)Nc1ccc(F)cc1
2.2% | O=C(CCSc1ccc(Br)cc1)Nc1cccnc1
2.7% | CCOc1ccc(NC(=O)CN(C)C(=O)c2cc(-c3ccco3)nc3ccccc23)cc1OCC
7.7% | COc1ccc(-c2c3c(=O)n(C)c(=O)n(C)c3c3n2-c2ccccc2NC3c2ccco2)cc1 (stereo not drawn)
-16.8% | Cc1nc(Cl)c(C(=O)NCCC(C)C)c(C)c1[N+](=O)[O-]
16.8% | CCOC(=O)c1ccc(CC(=O)c2ccc(O)c(O)c2O)o1
-19.6% | O=C(COC(=O)c1nc(Cl)ccc1Cl)NC1CCS(=O)(=O)C1 (stereo not drawn)
-13.7% | C/C(=N/Nc1nc(-c2ccccc2)cc(-c2ccc(F)cc2)n1)c1cccc(N)c1
-1.9% | Cc1ccc(CNC(=O)COC(=O)c2ccc(S(=O)(=O)N3CCCC3)cc2)cc1
u | O=C(C#Cc1ccccc1)c1cccc([N+](=O)[O-])c1

Screens as filed in PubChem BioAssay.
